HPGD block = qHTS Assay for Inhibitors of HPGD (15-Hydroxyprostaglandin Dehydrogenase) | 15-hydroxyprostaglandin dehydrogenase [NAD(+)] (Homo sapiens), P15428 | purified HPGD, NADH fluorescence kinetic, PGE2 substrate | Potency, µM, inactives show top-dose activity change, negative = inhibition, actives largely listed as inhibitors | hit rate 4.3% among 150,000; active = well fitted inhibition curve with a large enough effect (not every such curve was filed as active); inconclusive = small, poorly fitted or top-dose-only effect, or another doubt; inactive = no such curve, though single readings can be large or run the other way;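 note: top concentration of the series not given in the record; plate controls included wells without enzyme; inactives centre near -10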
Target sequence (P15428 whole entry, looked up): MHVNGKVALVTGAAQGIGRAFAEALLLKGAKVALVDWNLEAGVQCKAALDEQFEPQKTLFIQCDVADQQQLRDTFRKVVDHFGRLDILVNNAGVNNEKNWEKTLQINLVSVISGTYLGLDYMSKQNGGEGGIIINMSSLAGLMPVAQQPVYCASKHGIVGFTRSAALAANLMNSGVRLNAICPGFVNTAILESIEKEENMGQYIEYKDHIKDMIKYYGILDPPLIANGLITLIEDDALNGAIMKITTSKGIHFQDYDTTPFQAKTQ
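NADH formation kinetics: reaction with 30 uM PGE2 and 1 mM NAD+ (final), 20 nM enzyme, Tris-HCl pH 8 with Tween 20, after 15 min compound preincubation at room temperature. Fluorescence change, last versus first of five reads.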
An asterisk follows results filed as active; u = inconclusive; & = joins results of further samples; [ ] = dose if it differs, or a comment. % is set by controls: 0 for no effect and ±100 for the full control effect; potency is the fitted concentration of half-maximal effect.

Cc1nc(SCN2C(=O)c3ccccc3C2=O)n[nH]1
- HPGD block: -6%
CC(=O)OC1CC(C)(C)N(OC(=O)c2ccccc2)C(C)(C)C1
- HPGD block: -12%
CNc1cc(-n2nc(C)cc2-c2ccccc2)ncn1
- HPGD block: -11%
CCC(C)n1ncn(-c2ccc(N3CCN(c4ccc(OC)cc4)CC3)cc2)c1=O (configuration not stated)
- HPGD block: -12%
Fc1ccc(CNC(=S)Nc2cccc(Cl)c2)cc1
- HPGD block: -29%
COc1cc(C(=O)NCc2ccc(C)cc2)ccc1OC(F)F
- HPGD block: -3%
Cc1nn(C)cc1CNC(=O)Nc1ccc(Cl)cc1
- HPGD block: -11%
Clc1ccc2nc(CSc3nncn3-c3ccccc3)cn2c1
- HPGD block: -10%
CCOc1ccccc1CN(Cc1ccco1)S(=O)(=O)c1ccc(-n2cnnn2)c(OC)c1
- HPGD block: -5%
COc1ccccc1NC(=O)c1nn(-c2ccc(OC(F)(F)F)cc2)ccc1=O
- HPGD block: -18%
COc1ccccc1Cn1c(CCCO)nc2ccccc21
- HPGD block: -10%
O=C(COc1ccccc1C(=O)c1cnn(-c2ccccc2)c1)Nc1ccccc1
- HPGD block: -15%
C=C(c1ccc(O)cc1)c1ccc(O)cc1
- HPGD block: -10%
COc1cc(C2C(C#N)=C(N)Oc3n[nH]c(C)c32)ccc1OC(=O)c1ccccc1 (configuration not stated)
- HPGD block: -15%
O=C(CN1C(=O)NC2(CCCCCC2)C1=O)Nc1ccc(S(=O)(=O)N2CCOCC2)cc1
- HPGD block: -6%

Brc1ccc(-c2cn3cccnc3n2)cc1
- HPGD block: u
CN1C(=O)c2ccccc2C(C(=O)NCCCN2CCCC2=O)C1c1c[nH]c2ccccc12 (configuration not stated)
- HPGD block: -13%
COc1ccc(C(=O)COC(=O)CCN2C(=O)[C@@H]3[C@H](C2=O)[C@@H]2C[C@H]3C(Br)C2Br)cc1 (some centres not stated)
- HPGD block: -14%
Cc1ccccc1NC(=O)CSC(N)=O
- HPGD block: u
COCCN1C(=O)N[C@@H](c2ccco2)C(C(=O)OC)=C1C
- HPGD block: -7%
O=C1CC(N2CCN(c3ccc(S(=O)(=O)N4CCOCC4)cc3)CC2)C(=O)N1Cc1ccccc1 (configuration not stated)
- HPGD block: -3%
O=c1cc(N2CCc3ccccc3C2)[nH]c(=O)n1-c1ccc(Cl)cc1
- HPGD block: -8%
CN(C)CCCOc1nn(Cc2ccccc2)c2ccccc12
- HPGD block: -6%
O=C(O)[C@@H](c1ccccc1)[C@@H](C(=O)O)c1ccccc1
- HPGD block: -6%
NC(=NCCc1c[nH]c2ccccc12)NS(=O)(=O)c1cc(F)ccc1F
- HPGD block: -2%
CCc1ccccc1N1CSC2=C(C#N)C(c3cc(OC)c(OC)cc3OC)CC(=O)N2C1 (configuration not stated)
- HPGD block: 7.9µM*
CCOC(=O)C1=C2SCC(=O)N2C(N)=C(C#N)C1
- HPGD block: -8%
COc1cc(CC(=O)OC2CCOC2=O)cc(OC)c1OC (configuration not stated)
- HPGD block: 0%
COc1cccc(/C=N/n2c(N)c(S(=O)(=O)c3cccs3)c3nc4ccccc4nc32)c1OC
- HPGD block: 147%[activator]
COc1ccccc1NC(=O)c1cccc(NC(=O)c2ccco2)c1
- HPGD block: -2%

CC1CCc2nc(NC(=O)c3ccco3)sc2C1 (configuration not stated)
- HPGD block: -14%
Cc1cc(C)cc(-n2ccnc2SCC(=O)Nc2nccs2)c1
- HPGD block: -2%
CCOC(=O)c1[nH]c(C)c(C(=O)Nc2ccc(C)cc2C)c1C
- HPGD block: -18%
COc1ccc(NC(=O)c2cc3sccc3n2Cc2ccc(F)cc2)cc1OC
- HPGD block: -11%
CCC1=C(OC(=O)N(CC)CC)N2C(=O)OC(=NCCc3c[nH]c4ccccc34)[C@]2(Cc2ccccc2)[C@H]2C1=CC[C@H]1C(=O)N(c3ccccc3)C(=O)[C@H]12
- HPGD block: -5%
CCOc1ccc(C(=O)N2CCCC2)cc1OC
- HPGD block: 28µM*
CC(C)(C#CCN1CCCCC1)OCCOC(c1ccccc1)c1ccccc1
- HPGD block: -3%
CCOc1cc(C2CC(=O)N3CN(C4CCCCC4)CSC3=C2C#N)ccc1O (configuration not stated)
- HPGD block: 25µM*
COc1ccc(CNC(=O)CCCNS(=O)(=O)c2cccc3nonc23)cc1
- HPGD block: -6%
CCOC(=O)Cc1csc(NS(=O)(=O)c2ccc3c4c(cccc24)C(=O)N3CC)n1
- HPGD block: -7%
Nc1nnnn1/N=C/C(Br)=C/c1ccccc1
- HPGD block: -22%
Cc1noc(C)c1C(=O)OCC(=O)NC1CC1
- HPGD block: -6%
CCS(=O)(=O)N1CCC(c2nc(-c3ccc(C)cc3)no2)CC1
- HPGD block: -8%
Cc1ccc(-c2cc(C(=O)NCCN3CCOCC3)no2)cc1
- HPGD block: -1%
Cc1cc(C(F)F)n2ncc(C(=O)NCCc3ccccc3Cl)c2n1
- HPGD block: -11%

COc1cnc(-c2ccccc2)nc1Oc1ccccc1C
- HPGD block: -10%
Cc1ccc2c(c1)c1c(n2C)C(=O)CCC1
- HPGD block: -16%
O=C(Nc1ccccc1-c1nc2ccccc2s1)c1ccco1
- HPGD block: -26%
CCCCOc1ccc(C(=O)Nc2ccc(SC(F)F)cc2)cc1OC
- HPGD block: -11%
C=CCn1c(SCC(=O)Nc2c(C)nn(Cc3ccccc3)c2C)nnc1C(O)c1ccccc1 (configuration not stated)
- HPGD block: -2%
CCn1c(-c2ccco2)n[nH]c1=S
- HPGD block: -23%
COCCNC(=S)NC12CC3CC(CC(C3)C1)C2
- HPGD block: -9%
Cc1ccc(S(=O)(=O)C2(C(=O)Nc3ccc4c(c3)OCO4)CC2)cc1
- HPGD block: 0%
COc1ccc(OC)c(NC(=O)C2C3CCC(O3)C2C(=O)O)c1 (configuration not stated)
- HPGD block: 5%
O=C(Oc1ccc(/C=N/O)cc1)c1ccccc1
- HPGD block: -7%
O=C(NC1CCCCC1)C(c1cccnc1)N(C(=O)CCl)c1ccc(F)cc1 (configuration not stated)
- HPGD block: -7%
CC(C)CN(C(=O)c1nn(C)c(=O)c2ccccc12)c1nc2ccccc2s1
- HPGD block: -7%
CS(=O)(=O)N1CCC2(CC1)CN(c1cccc(-c3ccccc3)c1)C2
- HPGD block: u
O=C(Nc1cccc(O)c1)c1cc2nc(-c3ccccc3)cc(-c3ccccc3)n2n1
- HPGD block: u
CCc1nc2ccccc2c2nc3ccccc3n12
- HPGD block: u

C[C@H]1Cc2c(COc3ccccc3)nc3c(c2CO1)CN(C(=O)c1ccco1)CC3
- HPGD block: -7%
CCOC(=O)c1cc(C)n(S(=O)(=O)c2ccc(C)cc2)c1C
- HPGD block: -9%
CCOC(=O)C(CSCC(=O)c1ccc(Cl)cc1)NC(=O)OC(C)(C)C (configuration not stated)
- HPGD block: -9%
Cc1cccnc1NC(=O)C1CCN(S(=O)(=O)c2cccs2)CC1
- HPGD block: -10%
N/C(=N\OC(=O)c1ccc(Cl)cc1)c1ccc(Cl)cc1
- HPGD block: -8%
O=C(CCCn1c(=S)[nH]c2ccc(Br)cc2c1=O)N1CCN(c2ccccn2)CC1
- HPGD block: -20%
CCOCCCNCc1ccc(OCc2ccccc2Cl)cc1
- HPGD block: -9%
O=c1nc2ccccc2c2n1C[C@H](CN1CCN(c3ccccc3)CC1)N2
- HPGD block: u
Cc1ccc(S(=O)(=O)N2CCN(S(=O)(=O)N3CCOCC3)CC2)c(C)c1
- HPGD block: -10%
COc1ccc(S(=O)(=O)N2CCCC2C(=O)NCc2cccs2)cc1 (configuration not stated)
- HPGD block: -13%
Cn1c(-c2cc3c(C(F)(F)F)nn(C)c3s2)n[nH]c1=S
- HPGD block: u
CCCCOC(=O)CCc1n[nH]c(=O)[nH]c1=O
- HPGD block: -5%
OCCCCNCc1ccc(OCc2ccc(Cl)cc2)cc1
- HPGD block: -4%
CSc1ccccc1NC(=O)COC(=O)c1ccccc1Cc1ccccc1
- HPGD block: -12%
CCN(CC)S(=O)(=O)c1ccc(C(=O)N2CCN=C2SCc2cccnc2)cc1
- HPGD block: -3%

Clc1ccc2c(c1)C=Nc1c(NCc3ccccc3)ncnc1O2
- HPGD block: -9%
COC(=O)c1c(NC(=O)Cn2cnc([N+](=O)[O-])n2)sc2c1CCC(C)C2 (configuration not stated)
- HPGD block: 11µM*
COc1cccc(-c2csc(N3CCN(C(=O)Nc4ccc(F)cc4)CC3)n2)c1
- HPGD block: -6%
Cc1ccc(S(=O)(=O)NCCCN(C)C)cc1
- HPGD block: -10%
COc1ccc(C(=O)Nc2ccc3c(c2)C(=O)c2ccccc2C3=O)cc1OC
- HPGD block: -10%
c1ccc(CN2CCN(c3nc4ccccc4n4cnnc34)CC2)cc1
- HPGD block: 14µM*
CN=C(NC1CCCCC1)c1ccc(Cl)cc1
- HPGD block: -5%
OCCN=Cc1c(O)[nH]c2ccccc12
- HPGD block: -8%
Cc1ccc(/C(O)=C2/C(=O)C(=O)N(Cc3ccco3)C2c2cccs2)cc1 (configuration not stated)
- HPGD block: -9%
COc1ccc(C)cc1NC(=O)C12CCC(C)(C(=O)O1)C2(C)C (configuration not stated)
- HPGD block: -4%
O=C(C1CC1)N1CCc2cc(Br)cc(S(=O)(=O)NCC3COc4ccccc4O3)c21 (configuration not stated)
- HPGD block: -7%
CC(Oc1ccc2ccccc2c1)C(=O)NNC(=S)NC(=O)c1ccco1 (configuration not stated)
- HPGD block: -22%
COc1cc(NC(=O)C2CCC(CNc3c(N4CCCCC4)c(=O)c3=O)CC2)cc(OC)c1 (configuration not stated)
- HPGD block: -9%
Nc1nc2ncc(CNc3ccc(C(=O)NC(CCC(=O)O)C(=O)O)cc3)nc2c(=O)[nH]1 (configuration not stated)
- HPGD block: -24%&-6%
O=C(/C=C/c1ccc(F)cc1)Nc1nc2ccccc2[nH]1
- HPGD block: -13%

Fetched one by one from above, three records:
OCCN=Cc1c(O)[nH]c2ccccc12
- HPGD block: -8%
Cc1ccc(/C(O)=C2/C(=O)C(=O)N(Cc3ccco3)C2c2cccs2)cc1 (configuration not stated)
- HPGD block: -9%
COc1cccc(-c2csc(N3CCN(C(=O)Nc4ccc(F)cc4)CC3)n2)c1
- HPGD block: -6%

(continued)
COc1ccc(-n2c(=S)[nH]c3cc(C(=O)Nc4ccccc4OC)ccc3c2=O)cc1
- HPGD block: -13%
CC(Sc1nnc(Cc2cccs2)n1C1CCCCC1)C(N)=O (configuration not stated)
- HPGD block: -10%
COc1ccc2c(c1)O[C@@H](c1ccc3c(c1)OCO3)[C@H](OC(=O)NCc1ccco1)C2=O
- HPGD block: -12%
CCOc1cc(S(=O)(=O)NCc2ccccc2)ccc1F
- HPGD block: -8%
CC1(C)CC(=O)N(c2ccccc2)C1(C)O (configuration not stated)
- HPGD block: -13%
COC(=O)[C@@H]1C[C@@H]2CC[C@@H](O)C[C@@H]2N1Cc1ccc(OC)cc1
- HPGD block: -13%
C=CCn1c(SCC(=O)C(C)(C)C)nnc1-c1cccs1
- HPGD block: 14µM*
CC1C(O)CC2C(C(=O)O)=CO[C@@H](O[C@H]3OC(CO)C(O)C(O)C3O)C21 (some centres not stated)
- HPGD block: -12%
COc1ccc(CCNC(=O)COC(=O)c2cnccn2)cc1
- HPGD block: -6%
CCCc1ccc(OCC(O)CN2CCN(c3ccccc3)CC2)cc1 (configuration not stated)
- HPGD block: -3%
CCCc1nnc(N2C(=O)c3cccc4cccc(c34)C2=O)s1
- HPGD block: u
Cc1csc(SCC(=O)Nc2sc3c(c2C#N)CCC3)n1
- HPGD block: -9%
Cc1cc2c(c(=O)n1Cc1ccccn1)C(c1ccc3c(c1)OCO3)C(C#N)=C(N)O2 (configuration not stated)
- HPGD block: -12%
COc1cccc(C(=O)Nc2cccc(-c3nnc(-c4ccco4)o3)c2)c1
- HPGD block: 20µM*
O=C(NC1CCCC1)C(c1ccsc1)N(Cc1ccccc1)C(=O)Cc1cccs1 (configuration not stated)
- HPGD block: 1%

COc1ccc([C@@H]2C(C#N)=C(N)S[C@@H](c3ccccc3)[C@@H]2[N+](=O)[O-])cc1
- HPGD block: -11%
COc1cccc(-c2nnc(SCc3cccnc3)o2)c1
- HPGD block: -29%
COc1cccc(C(=O)NC2CC3CCCC(C2)N3CC(=O)Nc2ccc(N(C)C)cc2)c1 (configuration not stated)
- HPGD block: 4%
CCCCCn1cnc2sc(-c3ccccc3)cc2c1=O
- HPGD block: u
CCC(C)NC(=O)Nc1ccccc1F (configuration not stated)
- HPGD block: -13%
CN(c1ccc(C(=O)NCc2ccco2)cc1)S(C)(=O)=O
- HPGD block: -10%
COc1ccccc1Nc1ccc(S(=O)(=O)N2CCCCC2)cc1[N+](=O)[O-]
- HPGD block: -15%
CCOC(=O)Cn1c(C(C)=O)nc2ccccc21
- HPGD block: -25%
CCCCn1c(SCC(=O)Nc2ccc3c(c2)CCC3)nc2ccccc2c1=O
- HPGD block: -22%
COc1cc(S(=O)(=O)n2ccc(C)n2)c(OC)cc1Cl
- HPGD block: -5%
CCN(CC)C(=O)c1ccc2c(=O)n(CCOC)c(=S)[nH]c2c1
- HPGD block: 14µM*
COc1ccc(NCc2nnc(SCC(=O)Nc3cc(C(F)(F)F)ccc3Cl)o2)cc1
- HPGD block: -14%
CC(C)CSC[C@@H]1O[C@H](n2cnc3c(N)nccc32)[C@H](O)[C@@H]1O
- HPGD block: -15%
O=C(CCc1ccc(S(=O)(=O)N2CCOCC2)cc1)N/N=C/c1ccc(O)c(O)c1O
- HPGD block: u
COc1ccc2[nH]c(=O)c(CN(CCCN(C)C)C(=O)Nc3ccccc3)cc2c1
- HPGD block: u
Cc1c(Cl)cccc1NC(=O)CCN1CCCCC1
- HPGD block: -5%
O=C(CSc1nc2ccccc2c(=O)[nH]1)NCc1ccc(Cl)cc1
- HPGD block: -12%

High-throughput results from PubChem BioAssay.

Some of the compounds tested; count on the stated rates, not on these rows.
